Screens as filed in PubChem.
GIRK2 activ: opens human GIRK2 potassium channels; P48051; HEK293-GIRK2 thallium flux, Thallos fluorescence; calls only for hits at 25 µM; hit rate 0.05% among 63,000; AID 1259325;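 active = among the strongest 0.2% of first-round signals and kept after retests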;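 note: first round at about 10 µM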
Target sequence (P48051 whole entry, looked up): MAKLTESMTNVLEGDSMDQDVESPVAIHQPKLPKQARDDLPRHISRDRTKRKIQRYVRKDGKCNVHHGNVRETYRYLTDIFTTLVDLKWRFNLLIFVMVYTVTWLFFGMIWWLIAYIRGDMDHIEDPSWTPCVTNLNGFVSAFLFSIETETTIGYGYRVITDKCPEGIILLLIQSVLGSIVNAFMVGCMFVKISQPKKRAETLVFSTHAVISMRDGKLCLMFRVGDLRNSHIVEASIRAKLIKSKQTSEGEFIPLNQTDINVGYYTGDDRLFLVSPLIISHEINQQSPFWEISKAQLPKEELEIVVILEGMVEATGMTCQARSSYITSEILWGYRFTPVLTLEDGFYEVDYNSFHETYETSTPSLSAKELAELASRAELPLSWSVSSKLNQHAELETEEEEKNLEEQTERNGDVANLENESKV
Calls only; i = inactive.

canonical_smiles	GIRK2 activ
COc1ccc(OC)c(-c2cc(C(=O)Nc3ccc4c(c3)CC(=O)N4)n(C)n2)c1	i
Cc1nn(-c2ccccc2)c2ncc(C(=O)N(C)C3CCCCC3)c(Cl)c12	i
O=C(NCc1ccc(Cl)cc1)N1CCC(CSCc2ccco2)CC1	i
Cc1cn2c(CCC(=O)Nc3nc4ccc(S(C)(=O)=O)cc4s3)csc2n1	i
COc1ccc(NC(=O)Nc2ccc(N3CCCCC3=O)cc2)cc1	i
CC1(C)SC2C(NC(=O)COc3ccccc3)C(=O)N2C1C(=O)O (centres undefined)	i
CCN(CC)c1c(S(=O)(=O)c2ccc(OC)cc2)cnc2cc(OC)c(OC)cc12	i
Cc1ccc(C)c(Cn2cc(-c3nc(-c4ccc5c(c4)OCO5)no3)ccc2=O)c1	i
CC(C)(C)C(=O)Nc1cc(C2CC2)nn1-c1nc2c(c(=O)[nH]1)CCCC2	i
CCc1nnc2ccc(N3CCN(S(=O)(=O)c4cc(C)c(C)cc4C)CC3)nn12	i
Cc1ccc(Cn2c(N3CCC(C(=O)NCC(C)C)CC3)nc3ccsc3c2=O)cc1	i
NC(=O)c1nnn(-c2ccc(OC(F)(F)F)cc2)n1	i
CC(=O)Nc1cc(-c2cccs2)nn1-c1nc(C)c(Cc2ccccc2)c(=O)[nH]1	i
COc1ccc(N2C(=O)C3N=NN(Cc4nc(-c5ccccc5Cl)no4)C3C2=O)cc1OC (centres undefined)	i
CCCOc1ccc(/C=C/C(=O)Nc2ccc(NC(C)=O)cc2)cc1	i
c1csc(Cc2nc3ccccc3[nH]2)c1	i
CSc1cccc(NC(=O)Cn2cc(-c3nc(-c4ccc(Cl)cc4)no3)ccc2=O)c1	i
O=C(c1ccccc1Cl)N1CC(c2nc(-c3cccs3)no2)C1	i
Cc1ccc(/C=C/S(=O)(=O)NCCc2csc(-c3ccc(F)cc3)n2)cc1	i
O=C(Nc1ccc(Cl)cc1)c1ccc(=O)n(Cc2cccc([N+](=O)[O-])c2)c1	i

The results go on:
canonical_smiles	GIRK2 activ
CC(C)(C)CC(C)(C)c1ccc(OCC(O)C[N+]2(C)CCCC2)cc1 (centres undefined)	i
CC1=C(C(=O)Nc2ccc(C)c(C)c2)C(c2ccc(Cl)cc2)NC(=S)N1 (centres undefined)	i
O=C(Cn1nc(-c2ccco2)ccc1=O)NCc1csc(-c2ccccc2)n1	i
Cn1c(=O)[nH]c(=O)c2c1nc1n(CCN3CCOCC3)c(-c3ccccc3)cn21	i
COc1ccc(Cn2c(CO)cnc2SCc2cccc([N+](=O)[O-])c2)cc1	i
Cc1noc(CNC(=O)C2CCN(C(=O)Cn3ccc4ccccc43)CC2)n1	i
O=C(c1cnn2c1OCCC2)N1CCN(CCc2ccccc2)CC1	i
CCCc1nnsc1C(=O)N1CCC(CSc2ccc(OC)cc2)CC1	i
O=C(CCc1ccccc1)Nc1ccc2c(c1)CN(S(=O)(=O)c1ccccc1)CC2	i
CN(C)C(CNC(=O)c1cccs1)c1cccn1C (centres undefined)	i
O=c1cc(-c2ccc(F)cc2)ncn1CCNS(=O)(=O)c1ccccc1C(F)(F)F	i
O=C(NCC(O)c1cccs1)NC(c1ccccc1)c1ccccc1 (centres undefined)	i
O=C(Nc1nc(C(=O)N2CCN(C(=O)c3ccco3)CC2)co1)c1ccsc1	i
COc1ccc(C(=O)COC(=O)c2cc3cccc(OC)c3oc2=O)cc1OC	i
CC(=O)Nc1ccc(SCCCC(=O)N2CCN(c3ccccc3Cl)CC2)nn1	i
O=C(CCCn1c(=O)[nH]c2ccccc2c1=O)NC1CCN(Cc2ccccc2)CC1	i
Cc1ccc(-c2cc3c(=O)n(Cc4nc(-c5ccc(OC(C)C)cc5)no4)ccn3n2)cc1C	i
CC(=O)c1cccc(NC(=O)CSc2ncnc3sc(C)c(C)c23)c1	i
Nc1ncc2[nH]cnc2n1	i
CCNC(=O)NC1CCCC(OC(=O)Nc2ccc(F)cc2)C1 (centres undefined)	i

4 neighbouring compounds out of the list so far, for reference:
canonical_smiles	GIRK2 activ
O=C(c1cnn2c1OCCC2)N1CCN(CCc2ccccc2)CC1	i
CCCc1nnsc1C(=O)N1CCC(CSc2ccc(OC)cc2)CC1	i
O=C(CCc1ccccc1)Nc1ccc2c(c1)CN(S(=O)(=O)c1ccccc1)CC2	i
CN(C)C(CNC(=O)c1cccs1)c1cccn1C (centres undefined)	i

4 entries from above in another layout.
GIRK2 activ	Compound
i	Cc1noc(CNC(=O)C2CCN(C(=O)Cn3ccc4ccccc43)CC2)n1
i	O=C(c1cnn2c1OCCC2)N1CCN(CCc2ccccc2)CC1
i	CCCc1nnsc1C(=O)N1CCC(CSc2ccc(OC)cc2)CC1
i	O=C(CCc1ccccc1)Nc1ccc2c(c1)CN(S(=O)(=O)c1ccccc1)CC2

New compounds follow:
canonical_smiles	GIRK2 activ
CCOC(=O)c1cnn2ccc(NC(=O)c3cccn(C)c3=O)cc12	i
COc1ccccc1-c1ccc(N2CCC(C(=O)Nc3cc(C)ns3)CC2)nn1	i
N#Cc1ccc(OC2CCN(C(=O)C3c4ccccc4Oc4ccccc43)CC2)nc1	i
CC(C)(C)c1ccc(S(=O)(=O)N2CCN(c3cnccn3)CC2)cc1	i
Cc1cc(C)c2c(n1)sc1c(=O)n(CC(=O)Nc3ccc(F)c(F)c3)c(C)nc12	i
O=C(Nc1ccc(-c2ccc(=O)[nH]n2)cc1)c1ccc(-n2cccn2)nn1	i
O=C(Nc1nc2c(s1)CCC2)NC1CCCC1	i
CN1C(=O)C(C)(C)COc2ccc(NC(=O)NCc3cccs3)cc21	i
CCCCN=C(N)NO	i
CCOC(=O)N1CCN(C(c2cccc(F)c2)c2sc3nc(CC)nn3c2O)CC1 (centres undefined)	i
O=C(OC[C@H]1OC[C@H](OC(=O)c2cc(O)c(O)c(O)c2)[C@@H](O)[C@@H]1O)c1cc(O)c(O)c(O)c1	i
CCOc1ccc(-n2c(N(CC)CC)nc3cc(C(=O)OC)ccc3c2=O)cc1	i
O=C(c1cccc(F)c1)N1CCN(Cc2nc(-c3ccc(F)cc3)cs2)CC1	i
Cc1c(C(=O)N2CCN(c3ccccc3)CC2)oc2c1C(=O)CCC2	i
COC(=O)c1ccc(NC(=O)CN(C)c2nc3c(Cl)cccc3s2)cc1	i
Cc1nccn1CCNC(=O)C(C)n1nc(-c2ccccc2)ccc1=O (centres undefined)	i
COc1ccc(-c2cnc(CNC(C)=O)[nH]2)cc1	i
Cc1nc(C)c(-c2nnc(NC(=O)Cn3c(=O)oc4ccccc43)o2)s1	i
CCCCNC(=O)c1c(N)n(/N=C\c2ccccn2)c2nc3ccccc3nc12	i
Cc1ccc2c(c1)N(C(=O)Cn1c3ccccc3c3ncn(Cc4nc(C5CC5)no4)c(=O)c31)CCO2	i

(cont.)
canonical_smiles	GIRK2 activ
Cc1nnsc1C(=O)N1CCC(Oc2nc3c(C)ccc(C)c3s2)CC1	i
Cc1noc(C)c1S(=O)(=O)N1CCc2nc(NC(=O)C3CC3)sc2C1	i
COc1ccc(CNC(=O)c2cn(-c3ccc(Cl)cc3)nn2)c(OC)c1	i
COc1ccc(CNC(=O)CN2CCc3[nH]c4ccc(F)cc4c(=O)c3C2)cc1	i
O=C(NCc1ccc(Cl)cc1)N(Cc1ccoc1)Cc1cccs1	i
CCCn1c(=O)c2sccc2n2c(CCC(=O)NCc3cc(OC)ccc3OC)nnc12	i
CCOc1cccc2sc(-n3nc(C)cc3NC(=O)c3ccc4c(c3)OCO4)nc12	i
CCc1cccc2sc(N(Cc3ccncc3)C(=O)c3cccc(S(=O)(=O)C(C)C)c3)nc12	i
COC(=O)C(C)Oc1ccc2c(=O)c(-c3ccccc3)coc2c1 (centres undefined)	i
Cc1cc(C)c(NC(=O)c2cc3c(=O)n(C)c(=O)n(C)c3n2Cc2ccccc2)c(C)c1	i
Cc1nc(-c2ccco2)sc1CNC(=O)Nc1cccs1	i
Cc1cc(C)n(CC(=O)Nc2cc(F)ccc2F)c(=O)c1C#N	i
O=C(C1CCN(c2nnc(N3CCCCC3)c3ccccc23)CC1)N1CCN(c2ccccc2)CC1	i
Cc1ccc(C)c(-n2ncc3c(=O)[nH]cnc32)c1	i
CCOc1cc(C)c(C)cc1S(=O)(=O)NCCc1ccccc1	i
CN(C)CC1COCCN1C(=O)c1c(F)cccc1Cl (centres undefined)	i
Cc1cn2nnc(C(=O)N3CCN(c4ccccc4)CC3)c2c(=O)[nH]1	i
Fc1ccc(-c2csc(Nc3ccc(F)cn3)n2)cc1	i
O=C(NCC(O)c1ccoc1)NC1CCCCC1 (centres undefined)	i
Cc1cccc2[nH]c(SCCOc3ccccc3)nc12	i

More entries follow.
canonical_smiles	GIRK2 activ
CC(=O)N1CCc2c(sc(NC(=O)c3ccc(C#N)cc3)c2-c2nc3ccccc3s2)C1	i
COc1ccc(CCNC(=O)CC2CCCCN2S(=O)(=O)c2ccc(Cl)cc2)cc1OC (centres undefined)	i
Cc1nc2ccc(NC(=O)c3ccc(S(=O)(=O)N(C)C)cc3)cc2c(=O)n1-c1ccc(Cl)cc1	i
Cc1cc(C)c2c(n1)nn1c(N3CCN(c4cccc(Cl)c4)CC3)cc(C)nc21	i
CCCCCCCCCCCCCCCC(=O)OC[C@@H](O)COP(=O)(O)O	i
Cn1c(=O)[nH]c(=O)c2c1nc(N1CCN(CC(N)=O)CC1)n2Cc1ccc(Cl)cc1Cl	i
CCOc1ccc(-c2ccc(=O)n(CCc3nc(-c4ccc(OC(C)C)cc4)no3)n2)cc1	i
Cc1cc(C)n(CC(=O)NCCc2ccccc2)c(=O)c1-c1nc(-c2cccc(Cl)c2)no1	i
Cc1ccc(NC(=O)c2c(O)c3cnn(Cc4ccccc4)c3[nH]c2=O)cc1	i
COC(=O)c1sccc1S(=O)(=O)N1CCc2nc(NC(=O)c3cc(C)on3)sc2C1	i
CCc1ccc(S(=O)(=O)N2CCC(N3CCC(O)C3)CC2)cc1 (centres undefined)	i
COC(=O)c1ccc(NC(=O)C(c2ccccc2)n2cccc2)cc1 (centres undefined)	i
O=C(N(c1cccc(C(F)(F)F)c1)C1C=CS(=O)(=O)C1)C(F)(F)F (centres undefined)	i
COc1ccc(S(=O)(=O)N2CCCCC2CCNC(=O)C(=O)Nc2ccc(F)cc2)cc1 (centres undefined)	i
O=C(NCC(O)c1ccc2c(c1)CCO2)C(=O)Nc1cccc(C(F)(F)F)c1 (centres undefined)	i
CCOc1ccc(-c2csc(-n3nc(C)cc3NC(=O)Cc3ccc([N+](=O)[O-])cc3)n2)cc1	i
Cc1ccc(-c2cc(C(=O)N3CCC(NC(=O)c4cccc(C#N)c4)CC3)[nH]n2)cc1C	i
CN(C)CC1COCCN1C(=O)C1(c2cccs2)CCCC1 (centres undefined)	i
Cc1c(OC(=O)c2ccco2)ccc2c(=O)c(-c3nc4ccccc4s3)coc12	i
COCCNC(=O)COc1cc(-n2cccn2)nc(C)n1	i

(list continues)
canonical_smiles	GIRK2 activ
O=C(O)c1ccccc1SC1CC(=O)N(c2ccc(I)cc2)C1=O (centres undefined)	i
CC(O)(CCc1ccccc1)CNC(=O)C(=O)NCc1ccc(Cl)cc1 (centres undefined)	i
Cc1cc(C)n(-c2ncc(NC(=O)C(c3ccccc3)c3ccccc3)cn2)n1	i
Cc1cc(C)c2c(n1)sc1c(N)ncnc12	i
CCNC(=O)NCCS(=O)(=O)N1CCc2ccccc21	i
COc1ccccc1N1CCN(c2nc(N3CCCC3)c3n[nH]nc3n2)CC1	i
Cc1cc(NC(=O)C(=O)NCC2(c3ccc(F)cc3)CC2)no1	i
COc1ccc(C)cc1NC(=O)COc1ccc2c(c1)O/C(=C/c1cccc(OC)c1OC)C2=O	i
Cc1nnc(SCC(=O)NCC2CCCO2)c2c1cnn2-c1ccccc1 (centres undefined)	i
O=C(Nc1n[nH]c2cc(-c3cc(F)ccc3F)ccc12)C1CC1	i
O=C(CCC1=NS(=O)(=O)c2ccccc2N1)NC1CCCC1	i
CCOC(=O)N1CCC(NC(=O)c2coc(NC(=O)c3cnccn3)n2)CC1	i
COc1ccc(/C=C2\Oc3cc(OC(=O)c4ccccc4)ccc3C2=O)c(OC)c1OC	i
CCOC(=O)c1c(NCc2ccccc2OC)c2ccccc2[nH]c1=O	i
Cc1c(C(=O)Nc2nc3ccc(S(C)(=O)=O)cc3s2)nnn1-c1nccs1	i
CC1(C)Cc2cccc(OCC(=O)N3CCN(C(=O)C4CC4c4cccs4)CC3)c2O1 (centres undefined)	i
Cc1ccc(C)c(S(=O)(=O)C(C#N)c2nc3ccccc3nc2N2CCCC2)c1 (centres undefined)	i
O=C(/C=C/c1ccccc1)N(CCN1CCOCC1)c1nc2ccccc2s1	i
COc1ccccc1N1CCN(C(=O)c2cc(=O)c(OCc3ccccc3)cn2C)CC1	i
CCc1cccc(OCC(O)Cn2c(NC3CCCCC3)nc3c2c(=O)n(C)c(=O)n3C)c1 (centres undefined)	i

Next structures follow.
canonical_smiles	GIRK2 activ
CCOC(=O)C1CCc2sc(NC(=O)CCc3c(C)nn(C)c3C)nc21 (centres undefined)	i
CCc1nccc2c1nc(-c1nonc1N)n2CC	i
Cc1ccccc1C(=O)N1CCC(Oc2ncccc2Br)CC1	i
CN(C)c1ccc(/C=C2\C(=O)Nc3ccccc32)cc1	i
O=C(NCCc1ccc(Cl)cc1)c1nnn(-c2ccc(Br)cc2)n1	i
COc1ccccc1N1CCn2c1nc1c2c(=O)n(Cc2ccccc2)c(=O)n1C	i
COc1cc(C(=O)Nc2nnc(-c3csc(C)n3)o2)cc(OC)c1OC	i
CCc1ccccc1NC(=O)Cn1nnc(-c2nc(-c3ccc(F)cc3)no2)c1N	i

An excerpt, so the mix of outcomes need not match the whole.
